VACV E9 pol inh – vaccinia E9 polymerase processive synthesis inhibition; in vitro processive DNA synthesis, absorbance read-out; active compounds read low; some inactives read as strong as hits; normalized absorbance, % (concentration not given with the values); 46,000 compounds, 0.94% hits; AID 493162;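 active = replicate mean up to 90% and picked by the depositor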;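 also: 100% = median of the test wells of a plate; 100 nL library stock went into each well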
* = called active by the depositor.

The first ten entries, to show the layout:
SMILES	VACV E9 pol inh
O=C(c1cc(Br)cc2c1OCC2)N1CCCCC1	88
CN(C)c1nc(-c2ccccc2)c2cc(Cl)ccc2n1	96
NC(=O)CSc1ccc2ccccc2n1	99
c1ccc(-c2nc(C34CC5CC(CC(C5)C3)C4)cs2)cc1	100
COC(=O)C1=CC(C(=O)c2ccccc2)=NN(c2ccccc2)C1C(=O)OC (stereo not drawn)	96
O=C(c1ccc2c(c1)sc1nc(-c3ccccc3)cn12)N1CCCCC1	95
COc1ccc(C=Nc2ccc(C(N)=O)cc2)cc1	99
CCOC(=O)Nc1ccc2c(c1)N(C(=O)CCN(C)C)c1ccccc1S2	100
O=C(CSc1ccc2ccccc2c1)N1CCN(c2ccccc2F)CC1	91
Cc1ccc(S(=O)(=O)NN2C(=O)S/C(=C/c3ccccc3)C2=S)cc1	98

All compounds of this part, repeating the preview:
SMILES	VACV E9 pol inh
O=C(c1cc(Br)cc2c1OCC2)N1CCCCC1	88
CN(C)c1nc(-c2ccccc2)c2cc(Cl)ccc2n1	96
NC(=O)CSc1ccc2ccccc2n1	99
c1ccc(-c2nc(C34CC5CC(CC(C5)C3)C4)cs2)cc1	100
COC(=O)C1=CC(C(=O)c2ccccc2)=NN(c2ccccc2)C1C(=O)OC (stereo not drawn)	96
O=C(c1ccc2c(c1)sc1nc(-c3ccccc3)cn12)N1CCCCC1	95
COc1ccc(C=Nc2ccc(C(N)=O)cc2)cc1	99
CCOC(=O)Nc1ccc2c(c1)N(C(=O)CCN(C)C)c1ccccc1S2	100
O=C(CSc1ccc2ccccc2c1)N1CCN(c2ccccc2F)CC1	91
Cc1ccc(S(=O)(=O)NN2C(=O)S/C(=C/c3ccccc3)C2=S)cc1	98
CCOc1ccc(CCNC(=O)Nc2ccc3snnc3c2)cc1	77
COc1cc(OC)cc(C(c2[nH]c(C)nc2O)C(C#N)C#N)c1 (stereo not drawn)	93
COC(=O)C1=C(Nc2ccc(OC(=O)c3cccc(C(F)(F)F)c3)cc2)CSC1	101
N#CCCN1C(=O)C2CC=CCC2C1=O (stereo not drawn)	82
CC(=O)Nc1ccc2nc(N)sc2c1	100
O=C(CCc1nc(-c2ccccc2)no1)NC1CCCCC1	108
CC1CCCCC1NC(=O)/C=C/c1ccc2c(c1)OCO2 (stereo not drawn)	102
CCOC(=O)c1oc(C(=O)OCC)c(O)c1O	107
Cc1ccc(-c2nc3ccc(Cl)cc3n2OCC(N)=O)cc1	91
CCN(c1cccc(C)c1)S(=O)(=O)c1c[nH]c(C(=O)OC)c1	88
CC(=O)N1N=C(C)CC1c1ccc(OCc2ccccc2)cc1 (stereo not drawn)	100
O=c1sc2ccccc2n1COc1ccccc1	97
Cc1c(S(=O)(=O)c2ccc(Cl)cc2)csc1C(=O)NC1CCN(Cc2ccccc2)CC1	106
CC(C)c1ccc(O)c(CN2CCN(c3ccccc3)CC2)c1	102
NC(=O)COC(=O)c1ccc(Cl)cc1N	98
O=C(c1ccc(F)cc1)c1c[nH]c2ccccc2c1=O	102
CCN(Cc1ccccc1)C(=O)Cn1c(=O)n(CC(=O)NCc2ccco2)c(=O)c2sccc21	101
N#CC(C(=O)NCc1ccccc1)c1nc2ccccc2nc1Cl (stereo not drawn)	93
O=C(/C=C1/Sc2ccccc2N(Cc2ccc(F)cc2)C1=O)NCc1ccccc1	104
CCOc1ccccc1NC(=O)CSc1nc2c(oc3ccccc32)c(=O)n1CCOC	89
CN(C)C(=O)c1cn(-c2ccccc2)nc1-c1cccnc1	106
CCOC(=O)c1ccc(NC(=O)C2C3CCCCC32)cc1 (stereo not drawn)	101
COc1ccc(C2C(C(=O)N(C)c3ccc(C(C)C)cc3)c3ccccc3C(=O)N2C)cc1 (stereo not drawn)	95
CCN(Cc1ccccc1)C(=O)CSc1nc2ncccc2[nH]1	110
N#CCCN(N)C1=NS(=O)(=O)c2ccccc21	101
O=C1CCCC2=C1C(c1cccs1)n1ncnc1N2 (stereo not drawn)	97
COc1cnc(-c2ccccc2)nc1Oc1ccc(Cl)cc1C	100
O=c1ccc2ccc(OCc3ccccc3F)cc2o1	100
COc1ccc(CN2C(=O)C(F)(F)C2c2ccco2)cc1 (stereo not drawn)	97
N#CCC(=O)N(Cc1ccccc1)C(=O)Nc1cccc(F)c1	91
CC[N+]12CCC(CC1)C(C(O)(c1ccccc1)c1ccccc1)C2 (stereo not drawn)	100
C=CCn1c(SCC(=O)Nc2ccc(S(N)(=O)=O)cc2)nnc1-c1ccco1	100
Cc1ccc(-c2cn3cccnc3n2)cc1NC(=O)Nc1ccccc1	104
O=C(/C=C/c1cccs1)NC1CCN(Cc2ccccc2)CC1	98
O=C1CSC(=NC2CC2)N1Cc1cccs1	112
Cc1ccc(C(=O)NCC2OCCc3ccccc32)cc1 (stereo not drawn)	107
CCC(CC)NC(=O)c1ccc2c(c1)OCO2	101
CC(C)(C)c1csc(-c2sccc2CS(=O)(=O)c2ccc(Cl)cc2)n1	101
CC12CC3(C)CC(O)(C1)CC(C(=O)c1ccccc1)(C2)C3	98
CCCNC(=O)C1CCCN(S(=O)(=O)N2CCC3(CC2)OCCO3)C1 (stereo not drawn)	94
O=C(/C=C/c1ccco1)NCCC1=CCCCC1	81
S=C(NCc1ccccc1)N1CCN(Cc2ccc3c(c2)OCO3)CC1	100
O=C(SCc1nc2ccccc2[nH]1)c1ccc(-c2ccccc2)cc1	100
CC(=O)N=C1SC2CS(=O)(=O)CC2N1Cc1ccccc1 (stereo not drawn)	108
C=CCNC(=O)C1CC1(c1ccccc1)c1ccccc1 (stereo not drawn)	100
Cc1ccc(C)c(CN(C2=NC3CS(=O)(=O)CC3S2)c2cccc(Cl)c2)c1 (stereo not drawn)	89
COc1ccc(C2OC(=O)C(C)=C(O)C2(C)C)cc1OC (stereo not drawn)	101
COc1cccc(OC)c1C(=O)N=c1sc2ccccc2n1C	95
COc1ccc(Nc2cc(C(=O)NCc3ccco3)c3ccccc3n2)cc1	101
O=S(=O)(CS(=O)(=O)c1ccc(Cl)cc1)c1ccc(Cl)cc1	93

Further results:
SMILES	VACV E9 pol inh
CCc1ccc(CNCC2CCCO2)cc1 (stereo not drawn)	97
CN(C)c1ccc(/C=C/C(=O)/C=C/c2ccc3c(c2)OCO3)cc1	100
CC1(C)Cc2cccc(C(=O)N3CCC(c4c[nH]c5ccccc45)CC3)c2O1	102
N#CCC12CC3CC(CC(C3)C1)C2	100
CCOc1ccc(N/C=C2/CCCC(C)C2=O)cc1 (stereo not drawn)	100
O=C(NC1CCCc2ccccc21)C1CCN(S(=O)(=O)c2cccs2)CC1 (stereo not drawn)	102
CCc1cccc2c(C(C(=O)c3ccccc3)c3c[nH]c4c(CC)cccc34)c[nH]c12	90
Cc1[nH]c2ccccc2c1CCNCc1cccs1	108
CSc1nc2ccc(NC(=O)c3ccccc3F)cc2s1	99
O=C1N(Cc2ccccc2)C(c2ccccc2)C1(F)F (stereo not drawn)	89
O=C(O)c1ccc(N=NN2CCCC2)cc1	100
Nc1sc2c(c1-c1nc3ccccc3s1)CCCC2	98
CC(C)N1C(=O)/C(=C\c2ccc(C(F)(F)F)cc2)SC1=S	100
O=C(Nc1ncccn1)C1c2ccccc2Oc2ccccc21	101
COc1ccc2c(c1)CCC(=O)C2	102
CCOC(=O)c1csc(NC(=O)C(C)(C)C)n1	107
COc1ccc(CCNC(=O)c2nc3ccccc3c(=O)[nH]2)cc1OC	104
C=CCOC(=O)CCN1C(=O)/C(=C/c2ccccc2)SC1=S	95
CC(=O)Nc1ccc(NC(=O)CSc2ncnc3ccccc23)cc1	100
O=C(O)c1ccc2ncsc2c1	100

In a second layout: entries from further up
> CCc1ccc(CNCC2CCCO2)cc1 (stereo not drawn)
  VACV E9 pol inh = 97

> CN(C)c1ccc(/C=C/C(=O)/C=C/c2ccc3c(c2)OCO3)cc1
  VACV E9 pol inh = 100

> O=C(O)c1ccc2ncsc2c1
  VACV E9 pol inh = 100

> N#CCC12CC3CC(CC(C3)C1)C2
  VACV E9 pol inh = 100

(next part)
SMILES	VACV E9 pol inh
Cc1ccccc1N1C(=O)C(Oc2ccc(Cl)cc2)C1CNCCc1ccccc1 (stereo not drawn)	99
CC(C)(C)c1ccc(S(=O)(=O)N2CCC(O)(c3ccc(Cl)cc3)CC2)cc1	102
N#CCC(=O)Nc1ccco1	102
COC(=O)C1=C(N)OC2=C(C(=O)CC(C)(C)C2)C1c1ccc(C(=O)OC)cc1 (stereo not drawn)	99
CSc1nn(-c2ccccc2)cc1C(=O)Nc1ccc(Cl)cc1	108
CSc1nc(-c2ccccc2)nc2c1CCCC2	105
Fc1ccc(/C=N/c2nc3ccccc3s2)cc1	100
Cc1cc(NC(=O)c2ccc(N)cc2)c(N)cc1N	99
COC(=O)c1ccccc1NC(=O)C(C)N1c2cccc3cccc(c23)S1(=O)=O (stereo not drawn)	106
O=C1C(Sc2ccccc2)=C/C(=N/S(=O)(=O)c2cccs2)c2ccccc21	82
O=c1/c(=C/c2ccccn2)sc2n1CN(c1ccccc1)CN=2	100
O=C(NCSc1nc2ccccc2o1)C(F)(F)F	99
Cc1ccc(C)c(N2CCN(C(=O)C3CCCN3S(=O)(=O)c3cccc4nsnc34)CC2)c1 (stereo not drawn)	106
COc1ccc(-c2ncccc2O)cc1	101
CSc1ccc(S(=O)(=O)Nc2c(C)cc(OCC(=O)N3CCOCC3)cc2C)cc1	95
O=C1CC(Nc2ccc(F)cc2)C(=O)N1Cc1ccccc1 (stereo not drawn)	101
Cc1sc2c(c1C)CSC(C(=O)NC(C)C)=C2	112
O=C(O)c1cc(C(=O)O)cc(N2C(=O)CSC2=S)c1	97
O=C(/C=C/c1ccccc1Cl)Nc1ncn[nH]1	92
O=c1n(-c2ccc(F)cc2)nc2n1CCCN2	107

Rewritten with bars between the fields: entries from further up
SMILES | VACV E9 pol inh
COc1ccc(CN2C(=O)C(F)(F)C2c2ccco2)cc1 (stereo not drawn) | 97
N#CCC(=O)N(Cc1ccccc1)C(=O)Nc1cccc(F)c1 | 91
CC[N+]12CCC(CC1)C(C(O)(c1ccccc1)c1ccccc1)C2 (stereo not drawn) | 100
C=CCn1c(SCC(=O)Nc2ccc(S(N)(=O)=O)cc2)nnc1-c1ccco1 | 100
Cc1ccc(-c2cn3cccnc3n2)cc1NC(=O)Nc1ccccc1 | 104
O=C(/C=C/c1cccs1)NC1CCN(Cc2ccccc2)CC1 | 98
O=C1CSC(=NC2CC2)N1Cc1cccs1 | 112
Cc1ccc(C(=O)NCC2OCCc3ccccc32)cc1 (stereo not drawn) | 107

Later entries:
SMILES	VACV E9 pol inh
COC(=O)c1ccccc1NC(=O)CSc1nc2ccccc2nc1C	102
NC(=O)C[n+]1ccn2c(NC3CCCCC3)c(-c3ccc(N4CCOCC4)cc3)nc2c1	91
CCOC(=O)c1sc2ncn3c(-c4ccc(C)cc4)nnc3c2c1C	99
CN1CCC(N(C)C(=O)c2cc(Cl)cc(Cl)c2)CC1	99
CC(C)N(C(=O)Cn1c2ccccc2c2nc3ccccc3nc21)c1ccccc1	101
Clc1ccc(-c2csnn2)cc1Cl	104
CC(C)C(C(=O)Nc1ccc(S(=O)(=O)Nc2ncccn2)cc1)N1C(=O)c2ccccc2C1=O (stereo not drawn)	100
Brc1ccc(-c2ccc3ccccc3n2)s1	104
Clc1ccccc1-c1nnc2cccc(Cl)n12	100
O=S(=O)(Nc1ccc(N2CCCCC2)cc1)c1cccs1	82
CC(C)CSc1nnc(CSCc2nc(-c3ccc(Cl)cc3)cs2)n1C	102
COC(=O)C1=C(C(F)(F)F)OC(C)=C(C#N)C1c1ccccc1-c1ccccc1 (stereo not drawn)	99
N/C(=N/c1nc2ccccc2o1)NC(=O)/C=C/c1ccccc1	100
O=C(CCC1CCCC1)N1CCN(CC2CC=CCC2)CC1 (stereo not drawn)	100
OC(c1ccccn1)c1c[nH]c2ccccc12 (stereo not drawn)	116
COC(=O)c1cccnc1NC(=S)NC(C)C	95
Cc1c(CC(=O)O)c(=O)oc2c(O)c(O)ccc12	103
O=C(C1CC1)N1CCc2cc(S(=O)(=O)NCCCN3CCCCC3)ccc21	93
CN(C)C(=O)CSc1nnc2sc3ccccc3n12	123
CCS(=O)(=O)/N=C(\N)c1ccccc1	86
O=c1cccc2n1CC1CC2CN(CC(O)/C=N/n2cnnc2)C1 (stereo not drawn)	99
CC(O)c1nc2ccccc2n1C(C)C (stereo not drawn)	101
c1ccc(COCC(CSc2ccccc2)OCc2ccccc2)cc1 (stereo not drawn)	92
Cc1cc(C)n2c(SC(CNS(=O)(=O)c3ccccc3)c3ccccc3)nnc2n1 (stereo not drawn)	110
Cc1cc(Cl)nc(Cl)c1C(=O)NC(=O)NCc1ccccc1	100
CCS(=O)(=O)N1CCC(C(=O)NCCCN2CCN(c3ccccc3F)CC2)CC1	104
COC(=C(C#N)C#N)c1c(-c2ccccc2Cl)noc1C	95
Cc1ccc(-c2nc(C(=O)N3CCN(Cc4ccccc4)CC3)c3n2CCCCC3)cc1	101
Cc1ccc(C(=O)c2cnc3cc4c(cc3c2S(=O)(=O)c2ccccc2)OCO4)cc1C	106
O=S(=O)(Nn1cnnc1)c1ccccc1	98
O=C(NC1CCCC1)c1cccc(S(=O)(=O)Nc2ccccc2F)c1	105
COc1ccccc1C1(CC#N)CCOC(C)(C)C1 (stereo not drawn)	100
COc1ccc2nc3sc(C(=O)N4CCCC4)cc3cc2c1	101
Nc1ccc(CCc2nc3cc(N)ccc3o2)cc1	103
N=C(N)SCc1csc(N)n1	99
CC1CC(Nc2ccccc2)c2ccccc2N1C(=O)c1ccco1 (stereo not drawn)	94
CCN(c1ccc(OC)cc1)S(=O)(=O)c1ccc2c(c1)CC(C)N2C(=O)C1CC1 (stereo not drawn)	94
CN1CCc2c(OCC(=O)NC3CCCCC3)cccc2C1=O	100
CC1(C)CC(=O)c2cc(C#N)c(SCSc3nc4c(cc3C#N)C(=O)CC(C)(C)C4)nc2C1	100
COc1ccc(CCC(=O)c2ccc3c(c2)OCCO3)cc1	98
Cc1ccc(/C(O)=C/C(=O)C(=O)Nc2ccc(S(=O)(=O)N3CCOCC3)cc2)cc1C	101
Cc1ccc(-c2csc(/N=C/c3cc(Br)ccc3O)n2)cc1	83
Cn1ccc(-c2cccc(NC(=O)Nc3ccccc3)c2)n1	95
COc1nc(C)c(Br)c(C)c1C#N	86

Bioassay records as filed in PubChem BioAssay.

Only part of the results is shown; the hit share may differ from the screen's.
